Bioassay records deposited in PubChem by several laboratories.
VCAM-1 down = inhibitors of TNFa-induced VCAM-1 surface display, cell-based, plate reader, pooled HUVEC, TNFa stimulus (AID 454); HUVEC TNFa-induced VCAM-1 surface immunofluorescence, plate reader; numbers were filed only for top-ranked candidate wells; inhibition, % at 5 µM; hit rate 0.2% among 10,000;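 active = compound among top-ranked inhibitors of TNF-induced VCAM-1 adhesion protein staining, with the hit upheld by image or statistical review; inactive = the rest, including hits rejected on review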;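 note: 0% = TNFa with vehicle and 100% = cells without TNFa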
FPRL1 binder = human FPRL1 ligands by binding competition, primary screen, cell-based, FPR counter-screen, flow cytometry | N-formyl peptide receptor 2 (Homo sapiens), P25090 | FPRL1-expressing cells, fluorescent ligand binding inhibition | inhibition, %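 (tested at 6.7 µM)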 | hit rate 0.3% among 24,000 | AID 441, 2006;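 note: 0% = buffer alone and 100% = receptor blocker peptide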
Target sequence (P25090 whole entry, looked up): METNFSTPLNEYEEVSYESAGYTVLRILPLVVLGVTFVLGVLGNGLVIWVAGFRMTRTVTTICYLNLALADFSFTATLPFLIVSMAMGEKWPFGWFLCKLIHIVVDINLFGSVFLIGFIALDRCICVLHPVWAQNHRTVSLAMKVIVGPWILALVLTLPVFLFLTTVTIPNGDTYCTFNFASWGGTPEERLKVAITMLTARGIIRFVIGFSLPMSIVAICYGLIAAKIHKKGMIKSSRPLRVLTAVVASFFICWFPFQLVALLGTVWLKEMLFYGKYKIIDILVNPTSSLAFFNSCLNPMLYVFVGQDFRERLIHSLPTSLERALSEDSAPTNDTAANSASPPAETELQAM
FPR binder = human FPR ligands by binding competition, primary screen, cell-based, FPRL1 counter-screen, flow cytometry; FPR-expressing cells, fluorescent ligand binding; inhibition, %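 (tested at 6.7 µM)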; hit rate 0.74% among 24,000; AID 440, 2006;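 note: 0% = buffer wells and 100% = receptor blocker peptide wells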
Target sequence (P21462 whole entry, looked up): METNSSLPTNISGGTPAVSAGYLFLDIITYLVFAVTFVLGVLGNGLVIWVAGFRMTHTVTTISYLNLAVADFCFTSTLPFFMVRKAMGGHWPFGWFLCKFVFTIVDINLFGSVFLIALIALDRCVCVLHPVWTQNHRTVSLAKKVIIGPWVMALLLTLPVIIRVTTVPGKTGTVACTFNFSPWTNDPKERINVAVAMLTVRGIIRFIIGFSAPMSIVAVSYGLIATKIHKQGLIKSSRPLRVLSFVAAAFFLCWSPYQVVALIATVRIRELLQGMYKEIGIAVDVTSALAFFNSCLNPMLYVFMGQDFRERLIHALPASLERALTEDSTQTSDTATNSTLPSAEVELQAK
VCAM-1 up imaging = enhancers of VCAM-1 display on endothelial cells, imaging, high-content imaging, pooled HUVEC, TNFa stimulus (AID 457). Pooled HUVEC, TNFa-induced VCAM-1 immunofluorescence imaging; hits of this screen are not shown here. calls only. hit rate 0.2% among 10,000;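 active = a top-ranked rise in VCAM-1 staining upheld on image or statistical review; inactive = the rest, including candidates rejected on review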;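 note: compounds tested at 5 µM in the well; cells exposed to compound for 24 hours before fixing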
VCAM-1 down imaging = inhibitors of TNFa-induced VCAM-1 surface display, imaging, high-content imaging, pooled HUVEC, TNFa stimulus (AID 456). HUVEC TNFa-induced VCAM-1 surface expression, immunofluorescence imaging; numbers were filed only for top-ranked candidate wells. inhibition, % at 5 µM; hits with a dose series show IC50 in µM. hit rate 0.2% among 10,000;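 active = top tenth filtered wells with inhibition above zero that passed visual or statistical confirmation; inactive = the rest, including hits rejected on review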;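 note: 0% = stimulated vehicle wells and 100% = unstimulated cells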
The depositor's hits bear a star; i = inactive; x = not tested or not shown.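 Rule for the calls, unless noted: active = mean above 30%; inconclusive = self-fluorescent; inactive = the rest.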

The first 3 records, ahead of the listing:
The line under a structure holds: VCAM-1 down	FPR binder	VCAM-1 up imaging	VCAM-1 down imaging	FPRL1 binder
> COCCOC(=O)C1=C(C)Nc2ncnn2C1c1ccc(F)cc1 (stereo unspecified)
→ i	1	i	i	-3
> Cc1ccc(N(CC(=O)NCC2CCCO2)S(C)(=O)=O)cc1Cl (stereo unspecified)
→ i	3	i	i	-4
> COC(=O)c1cc2sc(Cl)cc2n1CC(=O)Nc1ccc(OC)c(OC)c1OC
→ x	2	x	x	0

The listing, from the first entry:
The line under a structure holds: VCAM-1 down	FPR binder	VCAM-1 up imaging	VCAM-1 down imaging	FPRL1 binder
> COCCOC(=O)C1=C(C)Nc2ncnn2C1c1ccc(F)cc1 (stereo unspecified)
→ i	1	i	i	-3
> Cc1ccc(N(CC(=O)NCC2CCCO2)S(C)(=O)=O)cc1Cl (stereo unspecified)
→ i	3	i	i	-4
> COC(=O)c1cc2sc(Cl)cc2n1CC(=O)Nc1ccc(OC)c(OC)c1OC
→ x	2	x	x	0
> O=C(NCc1cccnc1)C1CCN(S(=O)(=O)N2CCC3(CC2)OCCO3)CC1
→ x	-3	x	x	2
> Cc1ccc(CCNC(=O)CN2CCN(Cc3ccccc3F)C2=O)cc1
→ x	5	x	x	12
> Cn1ccnc1Sc1nnnn1-c1ccccc1
→ x	1	x	x	-1
> CCCCOC(=O)C1=C(C)Nc2ncnn2C1c1ccc(OC)c(OC)c1OC (stereo unspecified)
→ x	1	x	x	-7
> COc1ccccc1-c1nc2n(n1)C(c1ccccc1Cl)C(C(N)=O)=C(C)N2 (stereo unspecified)
→ x	-5	x	x	-3
> O=C1CCCCCC1C1(O)C(=O)Nc2ccccc21 (stereo unspecified)
→ i	-3	i	i	-1
> CCCOc1c(OC)cccc1C1CC(=O)Nc2cc(OC)c(OC)c(OC)c21 (stereo unspecified)
→ x	-6	x	x	3
> CC1(C)CC(=O)C2=C(C1)N(c1ccccc1)C(N)=C(C#N)C2c1cccnc1 (stereo unspecified)
→ x	12	x	x	14
> CCOc1ccc(NC(=O)C(C)Sc2nnc(C)n2C)cc1 (stereo unspecified)
→ i	-5	i	i	5
> CCOCCCN1C(=O)CN(C2CCCCC2)C(=O)C1c1ccc(OC)c(OC)c1 (stereo unspecified)
→ x	6	x	x	4
> CCSCCNC(=O)c1cc(-n2cnnc2)ccc1Cl
→ i	0	i	i	4
> Cc1ccc(Cn2c(SCC(N)=O)nc3c2c(=O)n(C)c(=O)n3C)cc1
→ i	-13	i	i	8
> CCN(Cc1ccccc1)C(=O)CC1Oc2ccccc2NC1=O (stereo unspecified)
→ x	-1	x	x	-6
> O=C1c2cccc3cccc(c23)C(=O)N1c1cccnc1
→ x	-4	x	x	-7
> CCn1cc(C(C)(C)C)c(C#N)c1NC(C)=O
→ x	6	x	x	18
> C=CCn1c(N)c(C(=O)Nc2ccccc2OC)sc1=S
→ x	2	x	x	-4
> CCOC(=O)Cn1cnc2c(nnn2-c2ccc(C)cc2)c1=O
→ x	-7	x	x	-6
> CCn1cc(SCC(=O)NCC2CCCO2)c2ccccc21 (stereo unspecified)
→ i	10	i	i	2
> COc1ccc(NC(=O)C(C)Oc2ccc(/C(C)=N\O)cc2)cc1 (stereo unspecified)
→ i	-2	i	i	-3
> CC1(C)CC(=O)c2cc(OCC(=O)O)ccc2O1
→ x	1	x	x	-1
> O=C(C1CCN(S(=O)(=O)c2cccc3cccnc23)CC1)N1CCN(c2ccccn2)CC1
→ x	-5	x	x	-2
> Cc1cc(C(=O)Nc2c(C)nn(Cc3c(Cl)cccc3Cl)c2C)no1
→ x	0	x	x	16
> C=CCn1c(SCC(=O)NCCCC)nc2scc(-c3ccco3)c2c1=O
→ i	9	i	i	0
> CN(CCCC(=O)Nc1ccncc1)S(=O)(=O)c1ccc(Cl)cc1
→ i	-3	i	i	1
> COc1cccc(NC(=O)N2CCN(c3ccc(C(F)(F)F)cn3)CC2)c1
→ x	9	x	x	5
> CCCNc1nc(N2CCOCC2)nc(N2CCOCC2)n1
→ i	-6	i	i	6
> Cc1ccc(-c2nn(-c3ccccc3)cc2/C=C(\C#N)c2cccc(C#N)c2)o1
→ i	5	i	i	-2
> O=C(NCc1ccco1)Nc1cccs1
→ x	4	x	x	6
> COC(=O)c1ccc(CSc2nnnn2Cc2ccccc2)cc1
→ i	1	i	i	3
> COc1ccc(C(=O)Nc2nnc(-c3ccccc3)o2)cc1OC
→ x	-3	x	x	0
> CN(C)c1ccc(C2N3CC4(C)CN2CC(C)(C3)C4O)cc1 (stereo unspecified)
→ x	-1	x	x	2
> C=CCn1cnc2c(c1=O)c1nc3ccccc3nc1n2-c1ccc(C)cc1
→ i	11	i	i	-1
> COc1ccc(C2NC(c3ccc(OC)c(OC)c3OC)C(C)C(=O)C2C)c(OC)c1OC (stereo unspecified)
→ i	-1	i	i	2
> CCOCCCn1c(=S)[nH]c2cc(C(=O)N3CCN(C)CC3)ccc2c1=O
→ x	0	x	x	0
> COCCN(CCOC)C(=O)CCn1c(=O)oc2ccccc21
→ i	7	i	i	4
> CC(=O)Oc1ccc(/C=c2\sc3ncnn3c2=O)cc1
→ x	1	x	x	-3
> Cc1cccc2cc(CN(Cc3nnnn3Cc3ccccc3)C3CCCC3)c(=O)[nH]c12
→ i	-2	i	i	-5
> CSc1nc2c(c(=O)n1-c1ccc(C)cc1)SCC2
→ x	1	x	x	-8
> COc1ccccc1-c1cc(C(F)(F)F)nc(S(=O)(=O)CCCC(=O)NC(C)C)n1
→ x	2	x	x	-12
> CCSc1nnc(-c2ccc(OC)cc2)o1
→ i	2	i	i	-2
> COc1ccc(CN(CC(=O)NCc2ccco2)C(=O)CCC(=O)Nc2nccs2)cc1
→ i	2	i	i	0
> CCOc1ccc(OCC)c2sc(C)nc12
→ i	-2	i	i	2
> O=C(Cn1cnc2c(oc3ccccc32)c1=O)c1ccccc1
→ x	-4	x	x	-2
> CC(=O)NCC(=O)OC(C)C(=O)Nc1ccc(C(C)=O)cc1 (stereo unspecified)
→ i	0	i	i	4
> Cn1c(=O)cc(SCC(=O)NCC2COc3ccccc3O2)c2ccccc21 (stereo unspecified)
→ x	-4	x	x	0
> CCN1CCCC1CNC(=O)Cn1cnc2sc(C)c(S(=O)(=O)N3CCC(C)CC3)c2c1=O (stereo unspecified)
→ x	1	x	x	-3
> O=C(NCc1ccc2c(c1)OCO2)c1ccccn1
→ i	-2	i	i	3

Entries of single compounds, quoted from the list. Values in the order: VCAM-1 down	FPR binder	VCAM-1 up imaging	VCAM-1 down imaging	FPRL1 binder
O=C(Cn1cnc2c(oc3ccccc32)c1=O)c1ccccc1 in the list: x	-4	x	x	-2
CCN1CCCC1CNC(=O)Cn1cnc2sc(C)c(S(=O)(=O)N3CCC(C)CC3)c2c1=O (stereo unspecified) in the list: x	1	x	x	-3

In the list so far, two have a CF3 group:
The line under a structure holds: VCAM-1 down	FPR binder	VCAM-1 up imaging	VCAM-1 down imaging	FPRL1 binder
> COc1cccc(NC(=O)N2CCN(c3ccc(C(F)(F)F)cn3)CC2)c1
→ x	9	x	x	5
> COc1ccccc1-c1cc(C(F)(F)F)nc(S(=O)(=O)CCCC(=O)NC(C)C)n1
→ x	2	x	x	-12

More compounds.
The line under a structure holds: VCAM-1 down	FPR binder	VCAM-1 up imaging	VCAM-1 down imaging	FPRL1 binder
> COc1ccc(OC)c(NC(=O)C2CCCCC2C(=O)O)c1 (stereo unspecified)
→ x	-6	x	x	0
> CCOc1ccc2nc(N3CCCC(C(=O)NCCCN4CCOCC4)C3)sc2c1 (stereo unspecified)
→ x	0	x	x	3
> N#CCCn1cc(C(CC(=O)c2ccc(Br)cc2)C(=O)O)c2ccccc21 (stereo unspecified)
→ x	-2	x	x	-10
> COc1ccc(N2CCN(C(=O)C(OC(C)=O)c3ccccc3)CC2)cc1 (stereo unspecified)
→ i	6	i	i	2
> O=C(O)c1cccc(COCC(F)(F)C(F)F)c1
→ i	-6	i	i	-5
> O=C(CSc1nnnn1C1CCCC1)N1CCN(C(=O)c2ccco2)CC1
→ i	2	i	i	-1
> O=C(NCc1ccc2c(c1)OCO2)C1CCN(Cc2cnn(-c3ccccc3)c2-n2cccc2)CC1
→ x	4	x	x	-2
> Cc1cc(C)c(C(=O)Nc2ccc(S(=O)(=O)Nc3onc(C)c3C)cc2)c(C)c1
→ i	-5	i	i	-1
> CCOc1ccc(C2C(C(=O)OC)=C(C)N=C3SCCC(=O)N32)cc1OCC (stereo unspecified)
→ x	2	x	x	5
> Cc1cccc(-n2ncc3c(NCc4cccnc4)ncnc32)c1
→ i	3	i	i	-5
> O=C1CC(Sc2nnc(-c3ccccc3)o2)C(=O)N1c1ccccc1 (stereo unspecified)
→ i	-4	i	i	-5
> CCOCCCN1CC(C(=O)NCCc2ccccc2)CC1=O (stereo unspecified)
→ x	-1	x	x	-6
> CCOC(=O)C1CCCN(C(=O)C2CCN(S(=O)(=O)c3cnc[nH]3)CC2)C1 (stereo unspecified)
→ x	-3	x	x	-2
> COc1cccc(-c2nnc3sc(-c4ccc(C)cc4)nn23)c1
→ i	-2	i	i	-2
> CCOC(=O)Nc1cc(Br)c2c(c1)OCCO2
→ x	-3	x	x	3
> COC(=O)c1cn(C)c2ccc(S(=O)(=O)N3CCCCC3)cc2c1=O
→ x	-8	x	x	0
> O=C(COC(=O)c1cc(S(=O)(=O)N2CCOCC2)cs1)c1ccccc1
→ i	-6	i	i	-4
> Cc1nn(Cc2ccccc2)c(C)c1NC(=O)CCC(=O)O
→ i	0	i	i	5
> O=C(c1cn(-c2ccccc2)nc1-c1cccs1)N1CCN(c2ccccn2)CC1
→ i	3	i	i	-8
> CCOC(=O)N1CCC(C(=O)Nc2ccc(OCC)cc2)CC1
→ x	-1	x	x	-4
> CC(C)N1C(=O)CCC1C(=O)NCc1ccccc1Cl (stereo unspecified)
→ x	-14	x	x	1
> COc1ccc(Br)cc1CNC(=O)CCc1nc(-c2ccccc2F)no1
→ x	-2	x	x	4
> Cc1cc(NC(=O)Cn2c(=O)n(Cc3ccccc3)c(=O)c3ccccc32)no1
→ x	2	x	x	-4
> COC(=O)c1ccccc1NS(=O)(=O)c1ccc(F)cc1
→ i	4	i	i	0
> COc1cccc(NC(=O)CC2SC(=Nc3ccccc3)NC2=O)c1 (stereo unspecified)
→ i	-14	i	i	-4
> CCCOc1ccc2ccccc2c1/C=N/n1cnnc1
→ i	5	i	i	2
> CCSc1cc(C2C(C(=O)OC)=C(C)NC3=C2C(=O)CCC3)c(C)o1 (stereo unspecified)
→ i	0	i	i	2
> COc1ccc(C2(C(=O)NCCCN(C)C)CCOCC2)cc1
→ x	-2	x	x	1
> Cc1ccc(NC(=O)C2CCCN(S(=O)(=O)c3c(C)noc3C)C2)nc1 (stereo unspecified)
→ x	2	x	x	2
> CCc1ccccc1NC(=O)c1nnn(CC(=O)Nc2cccc(C)c2C)c1N
→ x	-6	x	x	-7
> Cc1cc(NC(=O)COC(=O)c2cccc(S(=O)(=O)N3CCOCC3)c2)no1
→ i	-4	i	i	-5
> CC1(C)CC(=O)C2=C(C1)OC(=O)C2(NC(=O)c1cccs1)C(F)(F)F (stereo unspecified)
→ i	2	i	i	-4
> O=C(O)c1cccc(NS(=O)(=O)c2ccc3nnn(O)c3c2)c1
→ i	1	i	i	0
> Cn1c(=O)c2c(nc(SCC(=O)NCc3ccco3)n2C)n(C)c1=O
→ i	-2	i	i	4
> CCCCc1ccc(NC(=O)N[C@H](C(=O)O)C(C)C)cc1
→ i	3	i	i	1
> CC1CCCC(C)N1CCCNC(=O)Cn1cc2c(n1)CCCC2 (stereo unspecified)
→ x	1	x	x	2
> Cc1nc2ccccn2c1C(=O)NCCCN1CCOCC1
→ i	-8	i	i	-5
> CSc1n[nH]c(NCc2ccccc2)n1
→ i	1	i	i	-3
> Cn1c(=O)c(NC(=O)c2ccccc2)c2n(c1=S)CCCCC2
→ i	-2	i	i	0
> CCCc1nc(N)c(C#N)c(-c2cccnc2)c1CC
→ x	-3	x	x	0
> CC(C)(C)n1nnnc1CN1CCC(NC(=O)NC2CCCCC2)CC1
→ i	8	i	i	1
> CCc1nn(CCCC(=O)N2CCc3ccccc3C2)c(=O)c2cc3occc3n12
→ x	4	x	x	-5
> CC(NC(=O)Cc1cccs1)C(c1cccs1)N1CCN(c2ccccc2F)CC1 (stereo unspecified)
→ x	6	x	x	-3
> CCCC(=O)Nc1cc(C)c(NC(=O)c2ccccn2)cn1
→ i	-1	i	i	-1
> CC(C)CSc1nnc2[nH]c(=O)cc(N)n12
→ x	0	x	x	1
> COc1ccccc1NC(=O)CCN1C(=O)C2CC=C(Cl)CC2C1=O (stereo unspecified)
→ x	1	x	x	1

Not all compounds are listed; rates above refer to the full screens.
